Sa ugtP lethal – growth inhibition of S. aureus ugtP deletion strain | S. aureus RN4220 ugtP deletion, OD600 growth, 16 h; some inactives read as strong as hits | growth inhibition, % (no concentration beside the values) | 330,000 compounds, 0.54% hits;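 active means z-score under -3 and OD600 up to 0.15 on both plates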;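 further: plate controls were untreated wells for no effect and antibiotic for full effect; wells of about 80 µL received 100 nL stock; the first replicate is given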
Sa RN4220 lethal – kills Staphylococcus aureus RN4220. inhibition, % (test concentration not listed). S. aureus RN4220 growth, OD600, 16 h. 330,000 compounds, 0.33% hits. AID 1259311;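 active means z-score of -3 or lower and OD600 up to 0.18 on both plates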;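 further: plate controls were untreated cells for no effect and reference antibiotic for full effect; stock transfer was 100 nL into about 80 µL; one replicate is shown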
BJeLR viability – BJeLR cell viability loss; inhibition, % (test concentration not listed); 300,000 compounds, 0.17% hits; BJeLR (HRASV12) viability, CellTiter-Glo ATP luminescence, 48 h; reference of the scale not given here;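 active means replicate mean above 50%; inconclusive means above 50% but judged a plate artefact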;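 further: 50 nL library stock added to about 25 µL; numbers are from one replicate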
Autofluor counter – flagged as autofluorescent in microsphere protease counterscreen; compound autofluorescence counterscreen, microsphere flow cytometry; stronger effect = higher value; fluorescence intensity (test concentration not listed); 360,000 compounds, 3.1% hits; AID 624483;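 active means at least 3 SD above the mean of all compounds, about 16000 in these data; inconclusive means too few beads counted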;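 further: 100 nL of 1 mM stock went into each well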
PrP UTR inh – inhibition of PrP 5' UTR reporter expression. cell-based PrP 5' UTR mRNA reporter, plate reader. inhibition, % (concentration not given with the values). 340,000 compounds, 0.35% hits. AID 488862;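 active means every replicate at 50% or more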;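 further: 0 = median of the neutral control wells; tested in H4 reporter cells; numbers are from one replicate; inactives centre near -14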
Mtb hypoxia rep – inhibitors of hypoxia-regulated fluorescent reporter in Mycobacterium tuberculosis. M. tuberculosis hypoxia-regulated fluorescent reporter, fluorescence. fluorescence inhibition, % (no concentration beside the values). 300,000 compounds, 0.1% hits. AID 1159583;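 active means 35 to 45% if threefold the growth effect, above 45% if 1.5-fold the growth effect; inactive means the rest, general growth blockers included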;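 further: wells of about 50 µL received 100 nL stock; 0% = vehicle wells and 100% = reference inhibitor wells; whole bacteria with a GFP reporter of the hypoxia response; strong numbers were not always called active; many hits fall short of the cut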
Mtb hypoxia rep growth – second read-out of Mtb hypoxia rep, no call of its own (marks repeat the call); growth inhibition, %; measured here: M. tuberculosis growth (absorbance);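 0% = vehicle and 100% = reference antibiotic; read after six days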
* = called active by the depositor; ? = inconclusive; . = no result given.

SMILES	Sa ugtP lethal	Sa RN4220 lethal	BJeLR viability	Autofluor counter	PrP UTR inh	Mtb hypoxia rep	Mtb hypoxia rep growth
CCOc1ccccc1CN1CCCC(C(=O)Nc2cccc(-n3cccn3)c2)C1 (configuration not stated)	-6	-3.2	8	5813	-6	-3	13
Cc1sc2ncnc(N3CCN(S(=O)(=O)c4ccc(F)cc4)CC3)c2c1C	16	8.4	3	5927	-8	-3	-3
Cc1cc(C(=O)NNC(=O)c2cccs2)c(C)o1	8	4.2	.	6640	-1	5	-3
O=C(NNC(=S)Nc1cccc(Cl)c1)c1ccccc1	-1	2.8	13	6505	-23	14	6
COc1ccc(-n2nc(C(=O)NCC(=O)NCc3ccc(F)cc3)c3ccccc3c2=O)cc1OC	5	7.8	-2	5998	-5	-2	-4
CC1CCc2nc(N)c(C#N)c(-c3cccnc3)c2C1 (configuration not stated)	7	2.0	6	4377	25	4	4
CN(Cc1ccccc1)Cc1c(F)cccc1F	-1	1.1	14	22850*	3	4	13
CCc1nnc(NC(=O)c2cccc(S(=O)(=O)N3CCCCC3)c2)s1	0	25	-8	6646	1	9	11
CCOc1ccc(NC(=S)N2CCN(C/C=C/c3ccccc3)CC2)cc1	3	12	-5	4391	-40	16	1
Cc1ccc(S(=O)(=O)N(C)C)cc1NC(=O)C(C)N(C)Cc1sccc1C (configuration not stated)	16	1.0	1	4325	-6	11	1
CS(=O)(=O)N(CC(=O)N1CCOCC1)c1ccc2c3c(cccc13)CC2	4	1.9	-25	3914	-19	.	.
COc1cc(CCC(=O)OCC(=O)N2CC(=O)Nc3ccccc32)cc(OC)c1OC	1	0.4	.	3851	-7	5	5
CN(NC(=O)c1c(Cl)cccc1Cl)c1cccc(Cl)n1	16	6.0	-3	3071	-18	20	10
CNc1cc([N+](=O)[O-])ccc1N/C=C/C(=O)c1ccc2c(c1)OCO2	7	2.4	4	2175	-9	13	8
COc1ccc(OC)c(NC(=O)CSc2nnc(CNC(=O)COc3ccc(Cl)cc3)o2)c1	13	0.3	1	5083	-8	4	1
O=C(NC1CCCC1)c1ccc(CS(=O)(=O)Cc2ccccc2Cl)o1	8	-0.7	8	4946	-9	4	1
CSc1nnc2c(n1)OC(C)=Nc1ccccc1-2	-3	2.4	3	11553	.	1	12
NC(=O)c1ncn(C2OC(CO)C(O)C2O)c1O (configuration not stated)	9	1.9	.	.	.	6	7
COc1ccc(OC)c(/C=N\NC(=O)c2c(C)nc3cc(C)ccn23)c1	.	.	-26	3911	-6	.	.
COC(=O)c1ccc(NC(=O)CNC(=O)C2CCCCC2)cc1	6	-6.1	-20	9853	-39	-12	-8
O=C1NC(c2ccccc2)(C(F)(F)F)C(=O)N1Cc1cccnc1 (configuration not stated)	2	0.6	4	4694	-30	.	.
CCc1ccc(N(CC(=O)NC2CCCCC2)S(=O)(=O)c2c(C)noc2C)cc1	8	5.8	0	5125	0	.	.
Cc1ccc(SCCC(=O)NCc2ccncc2)cc1	15	6.3	-12	3352	-11	1	-5
COc1nc(NCc2cccnc2)nc(OC)n1	0	0.0	-1	16316*	-4	-3	10
Cc1ccc(-n2c(-c3ccncc3)n[nH]c2=S)c(C)c1	5	3.9	-3	2574	-17	5	4
CCOc1cc(C(=O)NCc2ccc(F)cc2)ccc1OCC(=O)N1CCCCC1	5	4.2	.	3011	-29	-1	-5
Cc1ccccc1OCCn1cc(/C(N)=N/O)c2ccccc21	27	3.5	1	8925	8	6	-3
Cc1cc(C)cc(N(C(C)C(=O)NCc2ccc3c(c2)OCO3)S(C)(=O)=O)c1 (configuration not stated)	-6	3.4	4	3989	-12	5	15
CCC1CCCCN1C(=O)c1ccc([N+](=O)[O-])o1 (configuration not stated)	12	19	-5	5402	-34	2	-2
CCCCOC(=O)c1ccc(N2C(=O)CC(N3CCN(C/C=C/c4ccccc4)CC3)C2=O)cc1 (configuration not stated)	8	6.2	-3	22464*	-22	-3	7
COc1ccc(-c2cc(-c3cccs3)c(C#N)c(SCC(=O)NCc3ccccc3)n2)cc1	6	7.9	-6	3314	-10	16	11
COc1cc(OC)c(S(=O)(=O)NCc2ccco2)cc1S(=O)(=O)NCc1ccco1	2	-9.7	-6	3370	-32	4	1
O=C1c2ccccc2NC(c2ccccc2)N1/N=C/c1ccccc1 (configuration not stated)	.	.	8	2801	3	.	.
CCOc1ccc(C=NNC(=O)c2ccc(CSc3nc4ccccc4[nH]3)cc2)cc1	7	-0.4	.	.	.	3	3
N#Cc1cc2nc(O)c(O)nc2cc1[N+](=O)[O-]	-6	3.4	.	6039	-2	-5	0
CCOc1ccc(S(=O)(=O)N/N=C(\C)c2ccc(OC)cc2OC)cc1	.	.	-2	2691	-29	.	.
Cc1cccc(C)c1NC(=O)C1(NC(=O)Cn2cccc([N+](=O)[O-])c2=O)CCCCC1	2	2.9	-15	1944	-28	6	3
CCCn1c(SCC(=O)N2CCCCC2)nnc1C(C)C	15	4.6	3	3488	-15	11	-8
CC(C)(C)c1cc(N)n2nc(C(C)(C)C)cc2n1	4	0.6	-1	3174	-22	15	-1
Cc1cccc(C)c1NC(=O)c1ccc([N+](=O)[O-])s1	-2	15	10	2465	-9	-17	0

Compound profiles (already shown). Values in the order: Sa ugtP lethal	Sa RN4220 lethal	BJeLR viability	Autofluor counter	PrP UTR inh	Mtb hypoxia rep	Mtb hypoxia rep growth
CCOc1ccc(C=NNC(=O)c2ccc(CSc3nc4ccccc4[nH]3)cc2)cc1 as listed: 7	-0.4	.	.	.	3	3
COc1cc(OC)c(S(=O)(=O)NCc2ccco2)cc1S(=O)(=O)NCc1ccco1 as listed: 2	-9.7	-6	3370	-32	4	1
CCc1ccc(N(CC(=O)NC2CCCCC2)S(=O)(=O)c2c(C)noc2C)cc1 as listed: 8	5.8	0	5125	0	.	.

Next section
SMILES	Sa ugtP lethal	Sa RN4220 lethal	BJeLR viability	Autofluor counter	PrP UTR inh	Mtb hypoxia rep	Mtb hypoxia rep growth
Cc1ccc(OCc2nc(-c3cccs3)no2)c([N+](=O)[O-])c1	3	2.5	18	3838	-58	-3	10
Cc1ccc(-n2c(C)cc(/C=N/NC(N)=S)c2C)cc1	.	.	-6	2338	-10	.	.
COc1cccc(CN2CCN(Cc3cccc(Oc4ccccc4)c3)CC2)c1OC	54	-6.1	5	3284	3	4	3
CCn1ncc(C(=O)Nc2ccc([N+](=O)[O-])cc2OC)c1C	1	4.8	-3	5229	-19	1	7
N#Cc1c(NC(=O)CN2CCCCC2)sc2c1CCC2	0	0.7	4	4643	-5	.	.
Cc1ccc(S(=O)(=O)CC(=O)Nc2ccc(S(=O)(=O)Nc3ccccn3)cc2)cc1	-15	1.0	-3	4568	80*	3	2
O=C(CSc1nnc(COc2ccccc2)n1Cc1ccco1)Nc1ccc2c(c1)OCCO2	8	3.2	-11	13230	-11	18	5
Cc1cc[n+](CC2OCc3ccccc3CO2)cc1	5	0.4	0	5895	-8	12	4
Cn1c(SCC(=O)C(C)(C)C)nnc1-c1ccncc1	-7	-0.9	0	10637	-9	2	19
CCOC(=O)C1CCCN(C(=O)Cn2nc(CC)n3c(cc4sccc43)c2=O)C1 (configuration not stated)	-10	-9.7	-4	5534	-18	5	12
CC(=NNC(=O)CNS(=O)(=O)c1ccc(C)cc1)c1cccc([N+](=O)[O-])c1	-3	-3.2	.	.	.	7	0
CN(C(=O)CSc1nnc(Nc2ccccc2)s1)c1c(N)n(Cc2ccccc2)c(=O)[nH]c1=O	-5	-0.1	-2	2468	-16	.	.
O=C(NCc1ccccc1C(F)(F)F)c1cccc2c1C(=O)c1ccc(N3CCCCC3)cc1S2(=O)=O	11	12	.	3110	-12	12	7
COC(=O)c1ccccc1NC(=O)C1CC(=O)N(c2ccc(C)c(C)c2)C1 (configuration not stated)	-6	-0.1	2	4404	0	-3	10
CSCCC(NC(=O)c1ccccc1Cl)C(=O)Nc1cccc(S(=O)(=O)N2CCCC2)c1 (configuration not stated)	.	.	-5	4406	-3	.	.
CN(C)C=NC(=O)c1cc(C(=O)c2ccccc2)c[nH]1	9	1.3	3	3585	-20	9	-6
CCCSc1nnc(NC(=O)Nc2ccc(C)cc2)s1	-3	7.0	4	3563	-13	1	2
O=C(Nc1ccc2c(c1)OCO2)NC1CCN(Cc2ccccc2)CC1	-6	2.2	5	8250	0	-6	-9
Brc1ccc(-c2nnc(-c3ccco3)o2)cc1	-14	-9.9	2	2479	-89	18	22
COc1ccc(CCC(=O)Nc2ccc(Cl)c(S(=O)(=O)N3CCCC3)c2)cc1	-6	-4.8	-1	3558	-71	-5	1

Already shown: entries from further up.
SMILES	Sa ugtP lethal	Sa RN4220 lethal	BJeLR viability	Autofluor counter	PrP UTR inh	Mtb hypoxia rep	Mtb hypoxia rep growth
Cc1ccc(OCc2nc(-c3cccs3)no2)c([N+](=O)[O-])c1	3	2.5	18	3838	-58	-3	10
Cc1ccc(-n2c(C)cc(/C=N/NC(N)=S)c2C)cc1	.	.	-6	2338	-10	.	.

(further entries)
SMILES	Sa ugtP lethal	Sa RN4220 lethal	BJeLR viability	Autofluor counter	PrP UTR inh	Mtb hypoxia rep	Mtb hypoxia rep growth
O=C(O)c1ncn(Cc2ccc(Br)cc2)c1C(=O)O	0	4.6	-3	4806	-33	1	-1
O=C(NN=Cc1ccc2c(c1)OCO2)C(=O)Nc1cccc(Cl)c1	9	2.5	.	.	.	-2	0
Cc1ccccc1N=C(N)Nc1ccccc1C	1	0.6	.	3580	-7	-8	-8
CC(C)(C)C1CCc2onc(C(=O)NCc3ccc(F)cc3)c2C1 (configuration not stated)	-15	6.6	.	22455*	0	11	5
Cc1ccc(S(=O)(=O)c2c(C)cc(C)nc2Oc2cccc(C)c2C)cc1	3	1.6	7	5269	-6	.	.
Cc1ccccc1NC(=O)Cc1nc(COC(=O)CSc2ccccc2)cs1	1	0.5	9	?	-9	3	-4
CCOc1ccc(Oc2ccc(C(F)(F)F)cc2NC(=O)C2=COCCO2)cc1	4	-0.5	.	8746	-5	0	2
O=C(Cc1cccs1)NCCN1CCOCC1	-1	2.1	-2	2120	-23	7	7
C/C(C=NNC(=O)Cn1cnc2c1c(=O)n(C)c(=O)n2C)=C\c1ccccc1	-5	0.1	.	.	.	-2	6
COc1ccc(CN(C)CC(=O)Nc2cccc3ccccc23)cc1F	6	7.4	5	3568	-1	1	11
Cc1ccc(C)c(S(=O)(=O)N2CCCOC2CNC(=O)C(=O)NCc2ccccc2)c1 (configuration not stated)	-1	2.9	-1	5972	-8	3	10
CCOc1ccccc1NC(=O)N1CCCC(c2nc(-c3ccc(C)o3)no2)C1 (configuration not stated)	18	4.8	3	2682	-57	-1	0
O=C(NNS(=O)(=O)c1ccc2ccccc2c1)C1CCN(Cc2ccccc2)CC1	4	5.6	1	3300	-25	4	8
CCN1CCN(C(c2cccnc2)c2c(NC(=O)c3ccco3)sc(C)c2C)CC1 (configuration not stated)	2	4.9	.	8042	-32	13	4
O=C(NCCCn1ccnc1)/C(=C/c1cccs1)NC(=O)c1ccco1	4	0.6	-22	4241	-19	-2	11
O=S(=O)(c1ccc(Cl)cc1)N1CCN(C(=S)Nc2ccccc2F)CC1	2	12	-7	4392	-19	5	3
CCN1CCN(c2ccc(S(=O)(=O)N3CCCCC3)cc2NC(=O)/C=C/c2ccc([N+](=O)[O-])cc2)CC1	9	0.4	3	?	-16	1	8
COc1nc(Oc2ccc(=O)n(C)n2)nc(N(C)C)n1	2	5.3	-6	2790	-15	6	12
COc1ccc(OC)c(C=NNC(=O)c2ccc(Cn3cc([N+](=O)[O-])cn3)o2)c1	9	3.8	.	.	.	0	4
C/C(=N\NC(=O)c1ccncc1)c1c(O)n(-c2ccccc2)c(=O)[nH]c1=O	6	4.0	-9	6044	.	6	-2
Fc1ccc(Nc2nc(N3CCOCC3)c3ccccc3n2)cc1	-31	1.4	7	2644	-15	-3	-10
CCOC(=O)C1=C(C)NC(SCC(N)=O)=C(C#N)C1c1cccs1 (configuration not stated)	5	1.8	-17	3001	-12	10	6
CCOC(=O)Cc1nc(-c2cccc(C(F)(F)F)c2)no1	8	9.6	-1	4644	-3	0	8
Cc1cc(C)nc(N2C(=O)CC(C(=O)O)NC2=NCCc2c[nH]c3ccccc23)n1 (configuration not stated)	3	-9.0	4	2460	-10	11	9
O=C(Nc1ccc(S(=O)(=O)NC2=NCCCCC2)cc1)c1cccc(S(=O)(=O)N2CCOCC2)c1	2	1.4	.	4146	-6	2	5
CCOC(=O)C1CCN(S(=O)(=O)c2ccc3c(c2)CC(=O)N3)CC1	-8	-9.6	5	5260	-9	14	8

Screening data as filed in PubChem BioAssay.
